Source: PubChem BioAssay (several laboratories)
MT1-MMP act inh = inhibitors of human MT1-MMP activation; P50281; HT1080 RFP-PRO-GFP cells, GFP/RFP ratio fluorescence, overnight; percent of plate control window, DMSO zero; GFP/RFP ratio change, % at 20 µM; 360,000 compounds, 0.061% hits; AID 651647;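 active means GFP/RFP ratio change of at least 30% with cell ATP level not reduced by more than half and red fluorescence within 50% of control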; further: strong numbers were not always called active
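Test system: HT1080 cells expressing an RFP-PRO-GFP fluorescent reporter construct / Compound dosing: single-point 20 µM compound, 1% DMSO / Schedule: cells overnight before dosing, compound overnight, 37 °C, 5% CO2 / Evaluation: GFP/RFP fluorescence ratio / Control set: DMSO and RFP-L50D-GFP cell wells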
eIF4H FP inh = inhibitors of RNA binding by human eIF4H; Q15056; eIF4H fluorescence polarization binding assay; inhibition, % at 35 µM; 290,000 compounds, 0.94% hits; AID 2012;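 active means 50% or more with normal probe brightness, or confirmed in later tests; inconclusive means above 50% with abnormal brightness, or retests that disagree; inactive means below 50% or failed in later tests; about a fifth of its hits are not listed in these tables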;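 further: calls also rest on retests at 20 µM and on dose response follow-up; 0% = protein and probe with vehicle and 100% = probe without protein; strong numbers were not always called active; many hits fall short of the cut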
CSC inhib = blocks cancer stem cells. cancer stem cell-like cells viability, luminescence. inhibition, % at 7.5 µM. 300,000 compounds, 1.1% hits. AID 2717;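 active means mean at 75% or more and at least half the replicates too; inconclusive means mean and replicates disagree; tested in HMLE shEcad cells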;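 further: 0% = median of negative and 100% = median of positive control wells; the first replicate is given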
Rce1 inh = inhibitors of yeast Ras-converting enzyme; Q03530; yeast membranes, quenched prenylated peptide cleavage fluorescence; calls only; 290,000 compounds, 0.27% hits; AID 2563;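 active means fall in fluorescence gain of 50% or more versus controls, with final raw signal at or below 3038400; inconclusive means same 50% fall but final raw signal above 3038400; inactive means fall in fluorescence gain under 50%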;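 further: plate controls were neutral control wells for no effect and wells lacking membranes for full effect; tested at 10 µM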
Target sequence (Q03530 whole entry, looked up): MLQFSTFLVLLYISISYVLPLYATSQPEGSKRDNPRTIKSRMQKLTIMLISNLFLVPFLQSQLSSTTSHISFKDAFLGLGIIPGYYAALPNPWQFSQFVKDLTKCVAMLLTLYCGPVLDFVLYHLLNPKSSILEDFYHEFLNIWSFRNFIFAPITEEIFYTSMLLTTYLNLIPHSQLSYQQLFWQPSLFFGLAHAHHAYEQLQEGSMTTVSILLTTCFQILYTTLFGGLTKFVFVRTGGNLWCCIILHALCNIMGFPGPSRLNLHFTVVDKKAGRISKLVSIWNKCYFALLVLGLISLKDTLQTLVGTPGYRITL
UUG fidelity = alters start codon recognition fidelity in yeast | S. cerevisiae UUG-firefly luciferase reporter, luminescence/redox ratio | activity score, % at 18.7 µM | 350,000 compounds, 0.13% hits | AID 602363;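 active means replicate mean at a twofold rise or more, about +100% in these data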;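 further: firefly luciferase made from a UUG start codon reports start codon fidelity; reporter light over untreated wells divided by growth signal over untreated wells; some hits fall short of that in this replicate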
PABP FP inh = PABP-poly(A) binding inhibition. P11940. PABP-poly(A) RNA binding, fluorescence polarization. AID 2014. inhibition, % at 35 µM. 290,000 compounds, 1% hits;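 active means 50% or more with normal probe brightness, or confirmed in later tests; inconclusive means above 50% with abnormal brightness, or retests that disagree; inactive means below 50% or failed in later tests; about a fifth of its hits are not listed in these tables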;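 further: calls also rest on retests at 20 µM and on dose response follow-up; controls were probe without protein and protein plus probe with vehicle; some compounds called inactive have numbers as strong as hits; many hits fall short of the cut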
Env fusion inh = inhibitors of HIV Env-mediated cell fusion; 360,000 compounds, 1.1% hits; inhibition, % at 12.3 µM; AID 651610; HeLa-JRFL Env/CEM21 cell fusion, luciferase;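 active means mean replicate inhibition score of at least 50 and every replicate individually at or above 50; inconclusive means only one of the two criteria met; inactive means mean below 50 and not all replicates reaching 50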;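 further: 0% = plate neutral controls and 100% = maraviroc near 300 nM; one replicate is shown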
eIF4H FP inh retest = further read-out of eIF4H FP inh, marked with its call; inhibition, %; compound at 20 µM; confirmation average;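 mean of two retest wells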
PABP FP inh retest = also measured in PABP FP inh; calls as there; inhibition, %; compound at 20 µM; confirmation repeats;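 mean of two retest wells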
MT1-MMP act inh RFP = further read-out of MT1-MMP act inh, marked with its call; RFP signal change, %; measured here: RFP expression control read;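 0 = vehicle wells; hits needed this value within 50% of zero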
The depositor's hits bear a star; i = inactive; ? = inconclusive; / = not tested or not shown; + = active, no number; & = joins results of further samples.

SMILES	MT1-MMP act inh	MT1-MMP act inh RFP	eIF4H FP inh	CSC inhib	Rce1 inh	UUG fidelity	PABP FP inh	Env fusion inh	others
O=C(c1ccc(Cl)cc1)N1CCC(c2nc(-c3cccs3)no2)CC1	1	-4	-7	0	i	-4	-5	/
Nc1ccc(C(=O)N/N=C\c2cc(N=Nc3cccc4ccccc34)ccc2O)cc1	22	-8	18	98*	i	-10	-2	-24
O=C(O)CCSc1nnc(COc2ccc(Cl)cc2)n1-c1ccccc1	-1	-4	-8	-3	i	16	2	15
CN1CCN(C2=CC3=CC(=C(C#N)C#N)CCC3CC2)CC1 (stereo not given)	-114	12	?	/	/	/	13	/
O=C(CSc1nnc(-c2ccccc2Cl)o1)N1CCCCC1	6	2	-4	2	i	-15	4	-17
CCN(c1ccc(OC)cc1)S(=O)(=O)N1CCCC(C(=O)NCc2ccccc2Br)C1 (stereo not given)	1	-5	-6	-13	i	-8	-2	12
Cc1ccc(S(=O)(=O)N2CCN(C(=O)c3cc4c(s3)CCCC4)CC2)cc1	4	-9	/	-5	/	-18	/	/
CCOP(=O)(OCC)C(Nc1cccc([N+](=O)[O-])c1)c1ccc(N(C)C)cc1 (stereo not given)	-2	-2	-5	-7	i	-9	2	14
O=C(O)c1ccc(-n2nnnc2Oc2cccc3cccnc23)cc1	0	0	-12	/	i	-8	-2	-8
COC(=O)C1=C(C)N(c2ccc(Cl)cc2)/C(=C/c2ccc(O)cc2)C1=O	-23	-14	8	8	i	/	6	22
COc1ccccc1CNC(=O)c1c(-c2ccccc2Cl)noc1C	-2	0	-7	-9	i	12	5	38
CCCc1c(OCCCCc2nn[nH]n2)ccc(C(C)=O)c1O	2	0	8&-6	6	i	7	-1&-6	2
Cc1ccc(S(=O)(=O)N2C[C@H]3[C@H]4C(=O)N(c5ccccc5)C(=O)[C@H]4C[C@H](OC(=O)NCc4ccco4)[C@@]3(O)C2)cc1	-1	4	/	/	/	-3	/	3
Cc1nc(N)sc1C(=O)N/N=C/c1cccnc1	0	3	-8	-4	i	/	-1	-3
CC(=O)N/C(=C\c1ccccc1)C(=O)OCC(=O)c1c(N)n(CC(C)C)c(=O)n(C)c1=O	-1	-2	/	-1	i	/	/	-8
O=C(Cc1ccccc1)NCC(=O)OCC(=O)c1ccccc1Cl	3	5	-5	-16	i	1	1	9
Cc1noc(N)c1C(=O)Nc1ccc(F)c(Cl)c1	-9	8	-6	-4	i	3	2	2
CCOc1ccc(/C=C(\C#N)C(=O)NC2CC2)c(OCC)c1	2	4	/	6	/	/	/	15
O=S(=O)(Nc1ccc(Br)cn1)c1ccc2ccccc2c1	-2	2	6	-1	/	8	4	6
Cc1cc(C(=O)NNC(=O)Cc2ccc(Cl)c(Cl)c2)c(C)o1	2	1	/	/	/	-8	/	5
O=C(NC1CCCC1)C(c1ccncc1)N(C(=O)Cn1nnc(-c2ccccc2F)n1)c1cccc(F)c1 (stereo not given)	1	2	8	4	i	-16	-5	-20
CC(=O)c1ccc(Nc2c3c(c(C#N)c4nc5ccccc5n24)CCC3)cc1	/	/	9	-9	i	/	-2	/
CCC(C)Nc1nc(-c2ccc3c(c2)NC(=O)CO3)cs1 (stereo not given)	-1	-1	7	-15	i	-36	16	/
Fc1c(F)c(F)c(N=Cc2ccc3ncccc3c2)c(F)c1F	1	0	0.6*	-8	i	/	88*	-3	eIF4H FP inh retest=92*;PABP FP inh retest=63*
CC12CCC(=O)N1C(C(=O)N1CCN(S(=O)(=O)c3cccc(C(F)(F)F)c3)CC1)CS2 (stereo not given)	-4	1	/	7	i	2	/	-1
N#CC1=C(S)N(c2ccc(F)cc2)C(c2cccs2)NC1=O (stereo not given)	-2	5	-4	/	/	-16	1	-19
CC(C)NC(=O)COc1ccccc1C#N	0	3	-1	-3	i	/	-7	12
CC(C)N(Cc1ccccc1)CC(O)COc1ccc(S(=O)(=O)N2CCOCC2)cc1Cl (stereo not given)	0	-1	-7	3	i	2	-2	-15
O=C(COC(=O)C1CC2C=CC1C2)Nc1c(Br)cc([N+](=O)[O-])cc1Br (stereo not given)	1	-1	/	-4	/	-4	/	3
CC[C@@H](C)[C@H](NC(=O)Cc1c(C)c2c(cc(C)c3c(C)c(C)oc32)oc1=O)C(=O)O	0	0	-11	2	i	-7	20	10
CSc1cccc(NC(=S)NN(C)C)c1	11	0	-13	-2	i	-25	-1	11
COc1ccc(CCNC(=O)CN2c3cccc4cccc(c34)S2(=O)=O)cc1OC	0	5	1	7	i	-8	2	-6
O=C(c1cc(C2CC2)nn1-c1ccccc1)N1CCN(S(=O)(=O)c2ccccc2F)CC1	-1	-1	/	/	/	-20	/	-2
CCOc1ccccc1CNC(=O)Cn1ccc2cc(S(=O)(=O)N3CCCC3)ccc21	0	-1	4	-8	i	-4	-3	12
COC(=O)C1=C(C)N(c2ccc(F)cc2)C(=O)C1	-1	7	-2	16	i	-21	2	7
CCN(CC)C(=O)COc1coc(CN2CCN(c3cccc(Cl)c3)CC2)cc1=O	-1	1	-8	-17	i	-9	8	-3
COc1ccc(N2CCN(Cc3csc(C)c3-c3ccc(C)cc3)CC2)cc1	-3	-2	3	30	i	-4	5	27
Cc1ccc(NC(=O)CNCc2ccccc2)c(Br)c1	2	1	10	-8	i	/	16	-13
Cc1cc(C(=O)NCc2cc(C(=O)O)oc2C)c(C)o1	-3	-3	7	-13	i	-32	10	-17
CC(C)Oc1ccc(F)cc1-c1cc(C(=O)Nc2ccc(C(C)(C)C)cc2)[nH]n1	4	-2	/	/	/	-7	/	7
O=S(=O)(Nc1cccc2ccccc12)N1CCCC1	-3	-4	-1	-1	+	13	7	13
CC(=O)Nc1ccc(C(=O)N2CCCCC2c2cc(C(=O)Nc3cccc(C#N)c3)no2)cc1 (stereo not given)	-1	-1	/	/	/	5	/	-4
CCOc1ccc(CNC(=O)C(CC)n2nc(C)n3c(cc4occc43)c2=O)cc1OC (stereo not given)	-3	-6	-5	-13	i	11	-1	/
COc1cccc(CNC(=O)Cc2ccc(-n3c(=O)[nH]c4ccccc4c3=O)cc2)c1	4	-10	1	39	i	-8	-4	/
O=C(Nc1cccc(NC(=O)c2ccccc2)n1)c1ccccc1	0	1	1	-7	i	-4	-6	0
C[C@H]1COC(=O)[C@@H](Cc2ccc(F)cc2)CC/C=C/C[C@H](CC(=O)N(CCO)Cc2ccccc2)C(=O)N1	5	0	/	-12	/	0	/	3
CC1(C)CC(=O)C2=C(C1)Nc1ccccc1NC2c1nc2ccccc2[nH]1 (stereo not given)	-4	1	1	3	i	-15	3	-10
O=C(COC(=O)CNC(=O)c1ccc(Br)o1)Nc1ccc2c(c1)OCCO2	6	2	7	-6	i	-6	-4	/
O=C1N/C(=C\c2ccsc2)C(=O)N1Cc1ccc(F)cc1	1	-4	5	/	i	-7	4	/
Cc1ccc(-n2nc(C)cc2N)c(C)c1	-2	0	-1	-8	i	-3	0	-5
Cc1nc([N+](=O)[O-])c(Br)n1CC(=O)c1ccccc1	-6	-5	-4	-3	i	/	-8	/
CN(C(=O)COC(=O)c1c[nH]c2ccccc12)c1ccccc1	-1	3	/	/	/	-1	/	-69
CCc1cc2c(SCC(=O)NC(=O)c3cccn3C)ncnc2s1	0	-1	15	-5	i	/	13	7
COc1ccc(NC(=O)CN(C)C(=O)c2c(C)nn(Cc3ccccc3)c2C)cc1	2	8	/	0	i	-6	/	-8
Cc1cc(C(=O)NC(C)C)on1	0	0	-5	-12	i	-12	-3	0
O=C(N=Nc1c(O)n(C2OC(=O)c3ccccc32)c2ccccc12)c1ccc(O)cc1 (stereo not given)	7	10	-9	-3	i	-32	-6	/
Cc1sc(N/N=C/c2cccs2)nc1-c1ccccc1	-7	-10	-4	1	i	/	-19	-21
CCN(C(=O)CCNC(=O)Cn1cnc2ccccc2c1=O)c1cccc(Cl)c1	1	1	15	-20	i	-15	10	0
CCC(=O)N(CC)c1nc(-c2cc(OC)ccc2OC)cs1	4	3	2	42	i	-27	5	/
Cc1ccc(-c2cc(=O)c3ccc(F)cc3[nH]2)cc1	-1	-5	1	11	i	-25	-3	-108

The listing continues:
SMILES	MT1-MMP act inh	MT1-MMP act inh RFP	eIF4H FP inh	CSC inhib	Rce1 inh	UUG fidelity	PABP FP inh	Env fusion inh	others
COc1ccc(OC)c(NC(=O)CSc2nnc(C)n2Cc2ccccc2)c1	7	-1	0	-2	i	-10	-7	1
Cc1nc2c(n1O)CCC/C2=N\O	4	8	-5	-2	i	-21	6	/
CCOC(=O)CCCNC(=O)COC(=O)c1cccc(C)c1O	5	4	-1	-3	i	-15	-1	/
CC(=O)Nc1cccc(C(=O)OCc2ccccc2)c1	3	0	5	-2	i	-12	9	-82
COc1cccc(C(=O)NCCS(=O)(=O)N(C)Cc2ccccc2)c1	0	-1	/	-5	i	-5	/	1
CC(C)(C)NC(=S)NCc1ccncc1	0	4	-5	5	/	/	-13	-6
O=C1C2C3c4ccccc4C(c4ccccc43)C2C(=O)N1Cc1ccccn1 (stereo not given)	-1	-2	2	-9	i	-11	-4	-11
COc1ccccc1NC(=S)NC(NC(=O)C(C)C)C(Cl)(Cl)Cl (stereo not given)	-1	1	0	/	i	/	13	-9
O=c1c(Cl)c(Cl)cnn1-c1ccccc1	-39	-33	-2	/	i	/	-1	-444
COc1ccc(Oc2c(Cl)cnn(-c3ccc(C)cc3)c2=O)cc1	-3	4	1	13	i	/	7	/
O=C(Cn1cc(C(F)(F)F)cc(Cl)c1=O)Nc1cc(Cl)cc(Cl)c1	0	-1	8	7	i	/	4	39
Cc1cnc(C)c(N2CCC(C(=O)NCc3ccco3)CC2)n1	2	3	4	11	i	-24	-4	/
CN1OC[C@@H]2CN(Cc3ccc(Cl)cc3)[C@H](c3ccc(-n4ccnc4)cc3)C[C@@H]21	-4	-1	/	/	/	-15	/	-9
CCN1C(=O)[C@H]2[C@@H](c3ccc(C)cc3)N3C(=O)N(c4ccccc4)C(=O)[C@@]3(C)[C@H]2C1=O	-2	1	-4	-3	i	-23	5	-9
COc1ccccc1OCCn1c(=S)[nH]c2ccccc21	4	0	-6	25	i	-14	13	2
COC(=O)c1cccc(NC(=S)NCc2ccc(F)cc2)c1	0	-6	-8	-10	i	/	2	13
Cc1ccc(S(=O)(=O)N2CN(Cc3ccco3)c3nc4ccccc4nc32)cc1C	-10	-6	45	5	i	-10	32	/
N#C/C(=C\c1ccccc1)C(=O)Nc1nncs1	-3	4	0	6	i	/	4	-10
O=C(c1ccc(CS(=O)(=O)c2ccc(Br)cc2)o1)N1CCN(c2ccc(F)cc2)CC1	0	-8	4	-24	i	-5	-5	0
Cc1ccc(C2=NN(C(=O)c3ccccc3F)C(c3ccccc3F)C2)cc1 (stereo not given)	-8	-3	-2	53	i	0	3	1

Reprinted at random: 3 records from the list, in no set order.
SMILES	MT1-MMP act inh	MT1-MMP act inh RFP	eIF4H FP inh	CSC inhib	Rce1 inh	UUG fidelity	PABP FP inh	Env fusion inh	others
N#C/C(=C\c1ccccc1)C(=O)Nc1nncs1	-3	4	0	6	i	/	4	-10
O=C1C2C3c4ccccc4C(c4ccccc43)C2C(=O)N1Cc1ccccn1 (stereo not given)	-1	-2	2	-9	i	-11	-4	-11
COc1ccccc1OCCn1c(=S)[nH]c2ccccc21	4	0	-6	25	i	-14	13	2
